# VDR inh: vitamin D3 receptor (human) inhibition. Potency, µM, for inactives: max response, negative = inhibition, hits mostly inhibitors. hit rate 0.93% among 400,000. P11473. VDR-SRC2-3 peptide fluorescence polarization, 2 h; active = well fitted inhibition curve with a large enough effect; inconclusive = small, poorly fitted or top-dose-only effect, or another doubt; inactive = no such curve, though single readings can be large or run the other way; also: series mostly up to about 120 µM
# Target sequence (P11473 whole entry, looked up): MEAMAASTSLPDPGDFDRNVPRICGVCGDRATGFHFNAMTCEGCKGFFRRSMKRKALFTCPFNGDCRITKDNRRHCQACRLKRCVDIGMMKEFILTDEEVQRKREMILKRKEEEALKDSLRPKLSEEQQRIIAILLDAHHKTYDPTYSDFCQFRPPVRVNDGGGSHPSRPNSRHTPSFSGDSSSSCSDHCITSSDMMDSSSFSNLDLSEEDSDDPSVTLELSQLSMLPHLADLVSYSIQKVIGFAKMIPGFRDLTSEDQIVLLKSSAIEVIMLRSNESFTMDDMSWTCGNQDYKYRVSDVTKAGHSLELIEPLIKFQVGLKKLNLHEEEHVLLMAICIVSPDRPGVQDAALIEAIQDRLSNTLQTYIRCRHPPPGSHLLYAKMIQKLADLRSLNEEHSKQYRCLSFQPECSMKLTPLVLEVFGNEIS
#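 Reagent solutions, kept cold and dark, are dispensed first; compounds are then pinned in at 23 nl, plates briefly spun, and incubated 2 h at ambient temperature. Inhibition of VDR–SRC2-3 peptide binding is read by fluorescence polarization.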
# Active calls of the source: *; ? = inconclusive; & = joins results of further samples. % is scaled to controls: 0 for no effect and ±100 for the full control effect; potency is read from the fitted curve at half-maximal effect. These rows are one share of the data, so the mix of outcomes need not match the whole.
Structure	VDR inh
O=C(NC1CCN(Cc2ccccc2)CC1)c1c(F)cccc1F	-21%
O=C1c2ccccc2/C(=C\c2ccc(Br)s2)N1c1ccccc1	-8%
CN1CCC2(CC1)C1CN(C)CC=C1C(C#N)=C(N)C2(C#N)C#N (stereo not drawn)	-9%&5%
O=C(Nc1nnc(N2CCCC2)s1)Nc1cc(F)ccc1F	11%
CCCC[C@@H]1CN=C(N)N1CCc1cc(C(F)(F)F)cc(C(F)(F)F)c1	-8%
C=C[C@](C)(O)CCC1C(=C)CC(O)C2C(C)(C)CCCC12C (stereo partly drawn)	-18%
Cc1ccc(OCC(=O)N(Cc2nnc(-c3ccccc3Cl)o2)C2CC2)cc1C	-11%
O=C(NCc1ccc(S(=O)(=O)Nc2ccccc2Cl)s1)c1ccccc1	15%
CCCCNc1cc(C)nc(N2CCOCC2)n1	-1%
COC(=O)C(NC(=O)CCc1c(C)nc2c(-c3ccccc3)c(C)nn2c1C)C(C)C (stereo not drawn)	-7%
C[C@H](NC(=O)NCc1cccs1)C(=O)O	5%
CCOC(=O)c1cnn(-c2ccccc2)c1NC(=O)c1cccs1	-3%
COC(=O)c1c(N2C(=O)CCC2=O)sc2c1CCCC2	-13%
N#Cc1ccccc1NCC(=O)N1CCN(S(=O)(=O)c2ccccc2)CC1	21%
Fc1ccc(CNCc2ccc(Br)cc2)cc1	2%
C#CCOCCOCCOCCNc1nc(N2CCN(C(=O)[C@H]([C@@H](C)CC)n3cc(CCCN=C(N)N)nn3)CC2)nc(N2CCN(C(=O)[C@H](CCCCN)n3cc(CCC(=O)O)nn3)CC2)n1	20%
CC(=O)N1CCN(c2ccccc2NC(=S)NC(=O)c2cc3ccccc3o2)CC1	11%
O=C(O)c1ccc(NC(CSCc2ccc(F)cc2)C(=O)O)c([N+](=O)[O-])c1 (stereo not drawn)	2%
CCOC(=O)CNC(=O)c1sc2nc(C)cc(C)c2c1N	-10%
CCCCN(C)C(=O)C1CCN(c2ccc(S(=O)(=O)N3CCOCC3)cc2[N+](=O)[O-])CC1	-21%

# Looked up one by one from the entries so far, four records:
Structure	VDR inh
CC(=O)N1CCN(c2ccccc2NC(=S)NC(=O)c2cc3ccccc3o2)CC1	11%
O=C(Nc1nnc(N2CCCC2)s1)Nc1cc(F)ccc1F	11%
Fc1ccc(CNCc2ccc(Br)cc2)cc1	2%
CN1CCC2(CC1)C1CN(C)CC=C1C(C#N)=C(N)C2(C#N)C#N (stereo not drawn)	-9%&5%

# Next part
Structure	VDR inh
N#CCc1c(C#N)c(N)nc(N2CCN(S(=O)(=O)c3ccccc3)CC2)c1C#N	10%
O=C(NCc1ccccc1)c1ccc(CNS(=O)(=O)c2ccc(Br)cc2)cc1	-17%
C/C(O)=C(\C#N)c1nc2ccccc2[nH]1	11%
O=C(CSc1nnc2c3ccccc3c3ccccc3c2n1)Nc1ccccc1F	-21%
COc1ccc(N(C)S(=O)(=O)c2cccc(C(=O)NCc3ccc4c(c3)OCO4)c2)cc1	9%
COC(=O)C1=C(C)N(Cc2ccco2)C(=O)N[C@H]1c1cccc(C(F)(F)F)c1	-18%&-7%
CCCc1nnc(NC(=O)C(CC)Sc2nnc3c4ccccc4n(C)c3n2)s1 (stereo not drawn)	-8%
COC(=O)N1CCC2(CC1)CN(C(=O)Nc1cccc(C#N)c1)C2	-2%
CSc1ncc(Cl)c(C(=O)Nc2c(C(=O)Nc3cccc(C)c3)oc3ccccc23)n1	-1%
NC(=O)c1ccc(-n2nnnc2SCC(=O)Nc2ccc(F)cc2)cc1	-10%
O=C(CSc1nnc(CNC(=O)c2ccc(F)cc2)o1)c1ccccc1	5%
Cc1nc2c(o1)C(=O)c1ccccc1C2=Nc1ccccc1	-6%
COc1ccc(Cl)cc1NC(=O)CSC1=Nc2ccccc2C2=NC(CC(=O)NCc3cccs3)C(=O)N12 (stereo not drawn)	5%
C=CCN(CC=C)C(=O)C1CCN(S(=O)(=O)c2ccc(-n3cnnn3)cc2)CC1	8%
COc1cccc(NC(=S)N2C3CCCC2CC(NC(=O)C2CC2)C3)c1 (stereo not drawn)	-5%
Cc1ccc2nc(C)c(C(=O)N/N=C/c3cccs3)cc2c1	-11%
O=C(CCn1c(=S)oc2ccccc21)NC1CCCCCCC1	16%
Cc1nn(-c2ccccc2)nc1CNC(=O)C1CCC1	-5%
COCCN1Cc2cccc(C(=O)Nc3cc(C)cc(C)c3)c2C1=O	4%
O=C(CSc1c2c(nc3ccccc13)CCC2)N1CCCC1	15%
N#Cc1ccc(-c2cccnc2)nc1SCC(N)=O	-6%
CC1Oc2ccccc2N(Cc2cccc(F)c2)C1=O (stereo not drawn)	-1%
CCOC(=O)c1c(N)n(-c2ccc(Cl)c(Cl)c2)c2nc3ccccc3nc12	-18%
CCN(CC)S(=O)(=O)c1nnc(NC(=O)c2ccc(C)cc2)s1	9%
Cc1cccc(C(=O)N/N=C/C(C)Cc2ccc3c(c2)OCO3)c1 (stereo not drawn)	-2%
Cc1nc(CS(=O)(=O)c2ccccn2)sc1C(=O)NNC(=O)c1c(F)cccc1Cl	-13%
CC(=O)Nc1c(C)nn(-c2ccccc2)c1N1CCC(C(=O)NCc2ccccc2Cl)CC1	-3%
CCOC(=O)C1=C(CC)OC(N)=C(C#N)C1c1ccc(F)cc1F (stereo not drawn)	-1%
O=c1[nH]cnc2scc(-c3ccc(F)cc3)c12	-10%
O=C(NCCCNC(=O)C(F)(F)C(F)F)C(F)(F)C(F)F	4%
O=C1Nc2ccc([N+](=O)[O-])cc2C1=Nc1cccc(CO)c1	-10%
CCSc1nnc(CCNS(=O)(=O)c2ccc(C(C)=O)cc2)n1C	-8%
COC(=O)c1ccccc1NC(=O)CC(=O)Nc1ccccc1C(=O)OC	-16%
O=C(Nc1nc2c(Br)cc(Br)cc2c(=O)s1)c1ccco1	1%
COc1cc(Cl)c(C)cc1NC(=O)CN1C(=O)C2CCCCC2C1=O (stereo not drawn)	-21%
CC(C)(C)/C(O)=C/c1nc2cc(Cl)ccc2oc1=O	-19%
COc1ccc(NC(=O)Nc2ccc(F)cc2F)c(C)c1	-4%
C[C@H](CO)N1C[C@H](C)[C@@H](CN(C)S(=O)(=O)c2ccc(F)cc2)Oc2c(NC(=O)Nc3ccc(C(F)(F)F)cc3)cccc2C1=O	-1%
O=C(CNC(=O)c1cc(Cl)nc2ccccc12)Nc1ccccc1Br	-15%
c1cc(N2CCCCC2)nc(N2CCCCC2)n1	-1%
COCCSc1nnc(NC(=O)C2CC(=O)N(CCc3ccc(F)cc3)C2)s1 (stereo not drawn)	-18%
Cc1ccc(C)c(NC(=O)c2cc(S(=O)(=O)NCCc3ccccc3)ccc2F)c1	6%
Cc1ccc(C)c(N2CCN(C(=O)c3cnc4c(-c5ccccc5)c(C)nn4c3C)CC2)c1	4%
CCCc1cc(=O)[nH]c(SC(C)C(=O)N2c3ccccc3CC2C)n1 (stereo not drawn)	-6%
CCOC(=O)N1CCN(C(=O)c2cn(CC)c3ccc(S(=O)(=O)N4CCCC4)cc3c2=O)CC1	14%
CC12CCC(C(=O)NCc3ccc(Cl)cc3)(OC1=O)C2(C)C (stereo not drawn)	-6%
Cc1ccc2oc(=O)c3cnn(CC(=O)N4CCCCCC4)c3c2c1	-24%
CSCCNC(=O)c1cccc(Cl)c1	-10%
CC(=O)/C(=N/Nc1cccc(Cl)c1)N1CCOCC1	?
CCN(CC)S(=O)(=O)c1ccc(N2CCOCC2)c(NC(=O)CCOc2ccccc2)c1	17%

# Next section:
Structure	VDR inh
COCCN(C(=O)COC(=O)C1(C)CC1(Cl)Cl)c1c(N)n(Cc2ccccc2)c(=O)[nH]c1=O (stereo not drawn)	-12%
COc1ccccc1N(CC(O)CN1CCCC1)S(=O)(=O)c1ccccc1 (stereo not drawn)	-2%
CSc1nc(C)c2c(n1)N(c1ccc(C(F)(F)F)cc1)CC2	-12%
Oc1c(Cl)cc(Cl)cc1C=Nc1ccc(N2CCOCC2)cc1	45µM*
COC(=O)c1ccc(Cn2nnc3ccccc3c2=O)o1	0%
CCOc1ccc(C(C)=O)cc1COC(=O)c1ccc2c(c1)NC(=O)CS2	3%
O=S(=O)(c1cnc[nH]1)N1CCN(c2ccc(F)cc2)CC1	-17%
Cc1ccc(C(=O)NCCC2=CCCCC2)cc1S(=O)(=O)N1CCCCC1	2%
CCn1cc(C2=NCCO2)c2ccccc21	-8%
Cc1cc(C)c(S(=O)(=O)N2CCOC2CNC(=O)C(=O)NCc2cccnc2)c(C)c1 (stereo not drawn)	-7%
CCN(C[C@H]1N[C@@](CC)(C(=O)OC)[C@H]2C(=O)N(C)C(=O)[C@@H]12)S(=O)(=O)c1ccc(F)cc1	4%
CCOC(=O)c1ccc(NC(=O)c2cnc3c(-c4ccc(F)cc4)c(C)nn3c2C)cc1	-5%
COc1ccc(-c2noc(-c3ccc(NCc4ccccc4OC)c([N+](=O)[O-])c3)n2)cc1	3%
COc1ccc(C(CC(=O)c2ccc(C)cc2)Nc2ccc([N+](=O)[O-])cc2)cc1 (stereo not drawn)	-10%
CCn1c(=O)c2sccc2n2c(CCCC(=O)N3CCN(c4ccccn4)CC3)nnc12	-14%
O=C(Nc1ccc(C(=O)N2CCCC2)cc1)C1CC1	-16%
O=C(NNC(=O)C1CC1)c1ccc(F)cc1F	-15%
Cc1cccc(N(NC(=O)C(C)(C)O)C(=O)c2ccccc2)c1	-5%
O=C(CCN1C(=O)c2ccccc2C1=O)Nc1cc(F)ccc1F	4%
O=C(CSc1nnc(-c2ccco2)n1CC1CCCO1)N1CCCCC1 (stereo not drawn)	-13%
Cc1c(NC(=O)c2noc3c2CCc2ccccc2-3)c(=O)n(-c2ccccc2)n1C	2%
Nc1ccc(S(=O)(=O)c2cc(O)c3ccccc3c2O)cc1	?
COc1ccc(/C(N)=N/OC(=O)C2CCC(=O)N2S(=O)(=O)c2ccc(C)cc2)cc1OC (stereo not drawn)	15%
CCCCOC(=O)c1cccc(NC(=O)CC)c1	13%
COc1cc(NC(=O)CN2C(=O)NC(C)(CC(C)C)C2=O)cc(OC)c1 (stereo not drawn)	6%
COc1cccc(-c2cc(C(F)(F)F)nc(N3CCN(c4ccccc4)CC3)n2)c1	26%
Cc1cccc(OCCNC(=O)CCNS(=O)(=O)c2ccc3ccccc3c2)c1	4%
COc1ccc([C@H]2C(C(=O)O)=C[C@@H](C(C)(C)C)N2S(=O)(=O)c2ccc(C)cc2)cc1OC	2%
CCOc1ccc(S(=O)(=O)N(CC)CC(=O)NCc2cccnc2)cc1	-1%
CC(C)Oc1cccc(C(=O)NC(=S)Nc2cccc(NC(=O)c3ccccc3Cl)c2)c1	-8%

# The last 6 records of the section before open the next one.
Structure	VDR inh
COc1cc(NC(=O)CN2C(=O)NC(C)(CC(C)C)C2=O)cc(OC)c1 (stereo not drawn)	6%
COc1cccc(-c2cc(C(F)(F)F)nc(N3CCN(c4ccccc4)CC3)n2)c1	26%
Cc1cccc(OCCNC(=O)CCNS(=O)(=O)c2ccc3ccccc3c2)c1	4%
COc1ccc([C@H]2C(C(=O)O)=C[C@@H](C(C)(C)C)N2S(=O)(=O)c2ccc(C)cc2)cc1OC	2%
CCOc1ccc(S(=O)(=O)N(CC)CC(=O)NCc2cccnc2)cc1	-1%
CC(C)Oc1cccc(C(=O)NC(=S)Nc2cccc(NC(=O)c3ccccc3Cl)c2)c1	-8%
Cc1ccc(C(=O)Nc2cccc(C(F)(F)F)c2)cc1NC(=O)c1nccn1C	6%
Cc1cccc(C)c1NC(=O)CN(C)C(=O)c1cccc(S(=O)(=O)N2CCN(c3ccccc3)CC2)c1	-6%
CCOC(=O)CSc1nnc(NC(=O)C2CC(=O)N(c3ccc(F)cc3)C2)s1 (stereo not drawn)	-6%
O=C(Oc1coc(CSc2ncccn2)cc1=O)c1cccs1	0%
CN1CCN(c2ccccc2NC(=O)c2ccc(N3CCOCC3)c([N+](=O)[O-])c2)CC1	-5%
COc1ccc(C=NNC(=O)CCCCC(=O)NN=Cc2ccc(OC)cc2)cc1	2%
CC1CCCCN1C(=O)COC(=O)C1CCN(S(=O)(=O)c2c(Cl)cccc2Cl)CC1 (stereo not drawn)	0%
Cc1cc2c3c(c1C)C1(C(=O)N3C(C)(C)CC2C)C(C#N)=C(N)OC2=C1C(=O)CC(C)(C)C2 (stereo not drawn)	11%
Cc1ccc(OC(=O)c2cccnc2)cc1	3%
CCOC(=O)Cc1c(C)nc2c(-c3ccc(Cl)cc3)c(C)[nH]n2c1=O	19%
CCCCNC(=O)c1cccc(C(=O)NCCCC)c1	-3%
CCOc1ccc(NC(=O)CN(C2CCCCC2)S(C)(=O)=O)cc1	-23%
CCCn1c(SCC(=O)Nc2cccc(C)n2)nc2c1c(=O)n(C)c(=O)n2C	5%
CN1CCN(S(=O)(=O)c2cccc(C(=O)N(Cc3nnc(-c4ccc(Cl)cc4)o3)C3CC3)c2)CC1	14%
COc1ccc(-n2nc(C(=O)NCC(=O)NCc3cccc(F)c3)c3ccccc3c2=O)cc1Cl	?
Cc1cc2[nH]c(=O)c(=O)[nH]c2cc1S(=O)(=O)Nc1cccc(Cl)c1	11%
COc1ccc(N(CC(=O)NCc2ccco2)S(=O)(=O)c2ccccc2)cc1	-8%
O=C(COC(=O)c1cnccn1)NCc1ccccc1	6%
Cc1cccn2c(=O)c3cc(C(=O)NC4CCCC4)n(C)c3nc12	-86%
O=C(c1cccc(S(=O)(=O)N2CCOCC2)c1)N(Cc1nnc(-c2ccccc2Cl)o1)C1CC1	-4%
Nc1cc(Cl)nnc1Cl	1%

# From PubChem
